GIV Gai3 FP: inhibitors of GIV peptide binding to Galpha-i3, primary screen, biochemical, fluorescence polarization, FITC-GIV GBA peptide, rat Galphai3. Guanine nucleotide-binding protein G(i) subunit alpha-3 (Rattus norvegicus), P08753. 90 min; hits give low values; scaled: aluminum fluoride 0%, vehicle 100%. percent of control (FP), % (no concentration beside the values). 0.42% of 210,000 active. AID 1224905, 2016;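 active = replicate mean at 85% of control or lower, very high polarization wells dropped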;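 note: wells of about 15 µL received 100 nL stock; the first replicate is given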
Target sequence (P08753 whole entry, looked up): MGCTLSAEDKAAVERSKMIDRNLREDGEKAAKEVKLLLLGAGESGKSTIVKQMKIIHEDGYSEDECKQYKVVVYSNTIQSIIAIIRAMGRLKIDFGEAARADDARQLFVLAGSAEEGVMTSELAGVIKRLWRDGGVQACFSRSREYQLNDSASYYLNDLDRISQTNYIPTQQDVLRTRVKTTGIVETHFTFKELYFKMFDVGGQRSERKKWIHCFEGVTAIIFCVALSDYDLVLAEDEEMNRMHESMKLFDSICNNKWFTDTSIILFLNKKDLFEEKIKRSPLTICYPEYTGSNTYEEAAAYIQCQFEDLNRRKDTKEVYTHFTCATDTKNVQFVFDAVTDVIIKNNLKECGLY
HCMV NEC inh: inhibitors of HCMV UL50-UL53 interaction, biochemical, HTRF; AID 1918969, 2023; inhibition, % (test concentration not listed); normalized percent inhibition; 0.15% of 190,000 active;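 active = both replicates at 50% or more, plus weaker picks with an unusually low signal ratio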;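 note: stock transfer was 100 nL into about 20 µL; 0% = negative control wells and 100% = wells with untagged competitor protein; inactives centre near -12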
Sa growth 42C: S. aureus growth inhibition at 42 and 30 °C, primary screen, LtaS inhibitor project, RN4220, two temperatures; OD600, 20 h, 42 °C; hits give low values; relative growth, % (concentration not given with the values); AID 720641, 2013; 0.53% of 170,000 active;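 active = growth at 42 °C up to 50% and 20 or more points under that at 30 °C, or under 10% at both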;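 note: 300 nL library stock went into each well; scaled to the means of positive and negative controls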
Sa growth 42C second temp: second read-out of Sa growth 42C, no call of its own (marks repeat the call); relative growth, %; measured here: growth at 30 °C;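 optical density after 20 h as mean of two plates; 100% = untreated growth and lower means inhibition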
The depositor's hits bear a star; . = not tested or not shown; & = joins results of further samples. Outcome played no part in choosing rows; about 0.79% have a hit in one of these screens.

Start of the data: the first 5 compounds, ahead of the listing:
SMILES	GIV Gai3 FP	HCMV NEC inh	Sa growth 42C	Sa growth 42C second temp
CCSc1nnc2c3cc(Br)ccc3n(C)c2n1	102	-9	100	97
CCN(C(=O)CC(C)C)C1CCCCC1	.	-19	82	85
COc1ccc(-c2ccc(CNCc3ccco3)o2)cc1Cl	108	-28	.	.
Brc1ccc(-c2ccc(CNCc3cccnc3)o2)c(Br)c1	104	-19	.	.
CC(C)(C)c1cc(C(C)(C)C)n(-c2ccc(NC(=O)COCC(=O)O)cc2)n1	108	-25	97	87

Results, repeating the preview:
SMILES	GIV Gai3 FP	HCMV NEC inh	Sa growth 42C	Sa growth 42C second temp
CCSc1nnc2c3cc(Br)ccc3n(C)c2n1	102	-9	100	97
CCN(C(=O)CC(C)C)C1CCCCC1	.	-19	82	85
COc1ccc(-c2ccc(CNCc3ccco3)o2)cc1Cl	108	-28	.	.
Brc1ccc(-c2ccc(CNCc3cccnc3)o2)c(Br)c1	104	-19	.	.
CC(C)(C)c1cc(C(C)(C)C)n(-c2ccc(NC(=O)COCC(=O)O)cc2)n1	108	-25	97	87
Cn1nnc2cc(C(=O)N3CCCCC3)ccc21	.	-12	98	84
O=C(NC1CCCc2ccccc21)C1CCN(c2cc(-c3cccc(F)c3)ncn2)CC1 (stereo unspecified)	103	-38	.	.
COc1ccc(OC2C(=O)N(Cc3ccc4c(c3)OCO4)C2c2cccs2)cc1 (stereo unspecified)	.	-13	86	88
O=C(C1CCN(S(=O)(=O)Cc2ccc(Cl)cc2)CC1)N1CCOCC1	103	-20	.	.
Cc1ccc(Cl)cc1NC(=O)CSc1nccn1C	101	.	114	89
Cc1ccc(-n2ncc3c(NNC(=O)c4ccccc4C)ncnc32)cc1	102	.	109	80
CCc1c(NCc2ccccc2)c2cccc3c2n(c1=O)CCC3	100	-11	49	60
Cc1cc(C(=O)NCc2ccc(C(=O)O)o2)c(C)o1	104	4	120	103
O=C(Cn1cnc2c(oc3ccccc32)c1=O)c1ccccc1	103	-12	100	93
COc1ccc(-c2cc(C(F)(F)F)nc(SCCC(=O)N3CCN(C)CC3)n2)cc1	104	6	79	85
COC(=O)CCN(C(=O)C1CCN(S(=O)(=O)c2c(C)noc2/C=C/c2ccccc2F)CC1)c1ccccc1	110	.	113	101
CCOC(=O)N1CCC(N2Cc3cccc(C(=O)N4CCN(c5cccc(Cl)c5)CC4)c3C2=O)CC1	100	-8	93	88
COc1nnc(-c2ccc(N3CCCCC3)c(NC(=O)c3ccccc3Cl)c2)c2ccccc12	104	-8	99	99
Cc1cccc(NC(=O)C(=S)N2CCOCC2)c1C	101	10	108	101
CCN(CC)c1ccc(NC(=O)c2cc(S(=O)(=O)N3CCc4ccccc43)cn2C)c(C)c1	99	-1	129	103
CCN(CC)CC(=O)Nc1ccc(S(N)(=O)=O)cc1	102	-12	94	93
Cc1nccn1-c1nc2nonc2nc1Nc1cccc(Br)c1	105	-73	.	.
CCOc1ccc2nc(N3CCCC(C(=O)NCc4ccccc4OC)C3)sc2c1 (stereo unspecified)	103	-39	116	98
O=C(COc1ccccc1)n1c(=O)oc2ccccc21	113	21	112	104
COC(=O)c1c(-c2cccs2)csc1NC(=O)COc1ccccc1	101	-10	105	78
NNC(=O)/C(=C\c1ccccc1)NC(=O)c1ccccc1	108	-41	108	84
O=C(CSc1ncn[nH]1)c1ccc(O)cc1O	99	-12	88	81
Cc1cc(=O)oc2c1c(C)nn2-c1nn[nH]n1	108	-12	105	81
CCOC(=O)c1c(CSc2ccccc2)n(-c2ccccc2)c2cc(Br)c(O)c(CN(C)C)c12	96	-15	.	.
COc1ccc(-c2nc(CSc3nncs3)cs2)cc1	.	-58	108	88
O=C(NC(=S)SCc1ccccc1)c1ccc(C(F)(F)F)cc1	98	-2	111	97
CS(=O)(=O)Nc1nc2ccc(NC(=O)CN3C(=O)COc4ccc(Cl)cc43)cc2s1	106	-21	.	.
CC(=O)N/N=C/c1ccc(Sc2ccc(C)cc2)o1	108	-71	115	101
Cc1cc(C)c(C(=O)COc2ccc(-c3nnco3)cc2)cc1C	.	-8	88	94
O=c1ccc(-c2ccc3c(c2)OCO3)n[nH]1	101&103	-62&-46	98	89
COc1ccc(OC)c(NC(=O)C2CCCCC2C(=O)O)c1 (stereo unspecified)	97	-12	96	90
CCOc1cc(CNC23CC4CC(CC(C4)C2)C3)ccc1OCc1cccs1	101	.	103	91
CCCCN(CC)CCCNC(=O)c1nn(C)c2c1CSc1ccccc1-2	107	-9	122	77
Cc1ccc(OCc2nnc(SCC(=O)Nc3nccs3)n2C(C)C)c(C)c1	102	.	104	92
CCCCNC(=O)C1CCCN(S(=O)(=O)c2ccc(-n3cnnn3)cc2)C1 (stereo unspecified)	99	-12	78	86

Copied from the list:
GIV Gai3 FP, CCOc1cc(CNC23CC4CC(CC(C4)C2)C3)ccc1OCc1cccs1 stands at 101
HCMV NEC inh, O=c1ccc(-c2ccc3c(c2)OCO3)n[nH]1 stands at -62&-46
GIV Gai3 FP, CCOc1ccc2nc(N3CCCC(C(=O)NCc4ccccc4OC)C3)sc2c1 (stereo unspecified) stands at 103
GIV Gai3 FP, CCCCN(CC)CCCNC(=O)c1nn(C)c2c1CSc1ccccc1-2 stands at 107

Additional entries follow.
SMILES	GIV Gai3 FP	HCMV NEC inh	Sa growth 42C	Sa growth 42C second temp
Cc1ccc(C)c(NC(=O)Cn2nc(C)c3nn(-c4ccc(Cl)cc4)c(C)c3c2=O)c1	103	.	89	92
CC1CCn2c(nc3cc(C(=O)NCc4ccc(OC(C)C)cc4)ccc32)C1 (stereo unspecified)	102	.	117	95
CCCCNC(=O)Cn1c(=O)n(-c2ccc(CC(=O)NCCC)cc2)c(=O)c2ccccc21	102	-16	.	.
Cc1cc(C)nc(Nc2n[nH]c(COc3ccc4ccccc4c3)n2)n1	108	-12	100	78
O=C(Cn1c2ccccc2c2ccccc21)Sc1nc2ccccc2s1	98	.	120	87
Cc1ccc(NC(=O)c2nnn(Cc3ccccc3)c2N)cc1C	110	-21	107	86
O=C(NCc1ccc2c(c1)OCO2)c1ccccn1	.	-11	93	97
O=c1c2oc3ccccc3c2n(Cc2ccc(Cl)cc2)c(=O)n1Cc1ccco1	100	.	89	89
CCCCCCc1cc2cc(-c3nnc(-c4cccc(Cl)c4)o3)c(=O)oc2cc1O	7.6*	-49	95	92
CC(C)c1ccc(Nc2nc(N3CCCCC3)nc(N3CCCCC3)n2)cc1	.	-11	90	90
Cc1c(NC(=O)c2cccc3c(Cl)cccc23)cccc1-c1nc2ccccc2o1	114	-1	107	97
CN1CCCN(C(=O)C2CCCCC2)CC1	.	-8	114	89
Cc1ccc2c(=O)cc(C(=O)Nc3sc4c(c3C(=O)NCc3cccnc3)CCCC4)oc2c1C	98	1	102	97
COc1ccc(-c2cc3nc(C)c(CCC(=O)Nc4ccccc4C(N)=O)c(C)n3n2)c(OC)c1	97	.	122	92
c1ccc2[nH]c(SCCN3CCCC3)nc2c1	103	-23	93	87
O=C(O)CCS(=O)(=O)N1CCOCC1	.	17	121	97
CCCc1ccc(-c2nc(CS(=O)(=O)c3ccsc3)no2)cc1	104	-2	110	108
COc1nc(NC23CC4CC(CC(C4)C2)C3)nc(OC)n1	105	17	75	97
CC(=O)c1cccc(Nc2ccc3cc(S(=O)(=O)N4CCCC4)ccc3n2)c1	108	.	98	97
CC1=C(C(=O)Nc2ccccc2)C(c2ccncc2)n2ncnc2N1 (stereo unspecified)	97	.	109	75
CC(=O)N1c2ccc(S(=O)(=O)N3CCCCC3)cc2CC1C(=O)N1CCN(c2ccccn2)CC1 (stereo unspecified)	100	-3	.	.
COc1ccccc1NC(=O)c1cc2c(n(-c3ccc(C)cc3)c1=O)CC(C)(C)CC2=O	105	-27	103	93
COC(=O)c1sc(=S)sc1C(=O)OC	98	-54	83	57
COc1ccc(-c2cccc(NS(=O)(=O)c3cc(C(F)(F)F)ccc3Cl)c2)nn1	99	.	122	81
Cn1c(=O)c2ccccc2n2c(COC(=O)c3cc4c(s3)-c3ccccc3CC4)nnc12	.	-16	89	86
O=C(NC1CCCC1)C1CCN(C(=O)N2CCOc3ccccc32)CC1	106	-21	118	80
C=CCn1nnnc1-c1cccc(Cl)c1	102	0	.	.
N#CC(C#N)C(c1ccccc1Cl)C(C(N)=O)[n+]1ccccc1 (stereo unspecified)	.	-32	90	69
COc1ccc(-n2cnc3cc(N=Cc4ccccc4O)ccc32)cc1	.	18	85	99
CN(C)S(=O)(=O)c1ccc(C(=O)OC2=CC(=O)CC(C)(C)C2)cc1	.	-24	86	90
Cc1nc(C)c(CCC(=O)O)c(=O)[nH]1	.	1	87	88
CC(C)(C)C1CCc2c(sc3nc(CCC(=O)Nc4ccc(Cl)cc4)[nH]c(=O)c23)C1 (stereo unspecified)	96	-13	.	.
Cc1cccc(NC(=O)Nc2ccccc2OCc2cc(=O)n3c(ncn3C(C)C)n2)c1C	97	-4	.	.
COc1ccc(NC(=O)c2cc(=O)[nH]c3ccccc23)cc1	.	-2	108	89
CC(=O)OCCn1nc(C)cc1Nc1ccccc1	.	8	96	97
Cc1ccc(C)c(OCCn2cc(C(=O)c3cccs3)c3ccccc32)c1	98	1	117	94
COc1ccc(-c2nn(CCC#N)c(=O)[nH]2)cc1	97	-11	99	99
CCN(CC)C(=S)SCc1nc2ccccc2c(=O)[nH]1	.	-17	71	82
O=C1CC2(CCCCC2)C(=O)N1Cc1ccc(Cl)cc1	.	-14	78	91
COc1ccc(-c2cc(C(=O)Oc3ccc(C(C)C)cc3)no2)cc1	95	-9	.	.

Shown with two lines to a compound: entries from further up.
Each structure is followed by: GIV Gai3 FP | HCMV NEC inh | Sa growth 42C | Sa growth 42C second temp
N#CC(C#N)C(c1ccccc1Cl)C(C(N)=O)[n+]1ccccc1 (stereo unspecified)
  . | -32 | 90 | 69
COc1ccc(NC(=O)c2cc(=O)[nH]c3ccccc23)cc1
  . | -2 | 108 | 89
Cc1ccc(C)c(OCCn2cc(C(=O)c3cccs3)c3ccccc32)c1
  98 | 1 | 117 | 94
CC(=O)OCCn1nc(C)cc1Nc1ccccc1
  . | 8 | 96 | 97
COc1ccc(-n2cnc3cc(N=Cc4ccccc4O)ccc32)cc1
  . | 18 | 85 | 99
COc1ccc(-c2nn(CCC#N)c(=O)[nH]2)cc1
  97 | -11 | 99 | 99

2 compounds drawn at random from those above, as already listed:
SMILES	GIV Gai3 FP	HCMV NEC inh	Sa growth 42C	Sa growth 42C second temp
Cc1nc(C)c(CCC(=O)O)c(=O)[nH]1	.	1	87	88
CC(C)(C)C1CCc2c(sc3nc(CCC(=O)Nc4ccc(Cl)cc4)[nH]c(=O)c23)C1 (stereo unspecified)	96	-13	.	.

(cont.)
SMILES	GIV Gai3 FP	HCMV NEC inh	Sa growth 42C	Sa growth 42C second temp
CCOC(=O)C1CCN(C(=O)c2ccc3c(c2)sc2nc(-c4ccc(OC)cc4)cn23)CC1	115	.	72	77
CCc1cc(=O)[nH]c(SCc2nc(-c3cccc(Cl)c3)no2)n1	101	.	84	87
Cc1cc(-n2c(C)cc(C(=O)COC(=O)C34CCC(=O)N3c3ccccc3S4)c2C)no1 (stereo unspecified)	.	1	93	102
CC(C)CNC(=O)C(C)N1C(=O)CCCc2ccccc21 (stereo unspecified)	106	-3	.	.
Cc1ccc(CNC(=O)c2ccc(CSCc3c(F)cccc3Cl)o2)cc1	102	.	91	35
Cc1ccc(O)c(C(=O)c2cnc(Nc3nc4ccccc4[nH]3)nc2)c1	.	-20	114	47
COc1cc(-c2nc3c4ccccc4c4ccccc4c3[nH]2)ccc1O	101	.	130	58
Nc1c(C(=O)Nc2ccccc2)nnn1Cc1ccc(F)cc1Cl	98	11	110	93
Cc1oc(-c2cccc(Cl)c2)nc1CN1CCC(C(=O)NC(C)C)CC1	105	-32	91	89
O=C1CCCN1C(=O)CSc1nc2ccccc2o1	.	-23	85	91
C=CCN(CC=C)C(=S)Oc1ccc(C(=O)Nc2cccc3ccccc23)cc1	.	-8	93	96
O=C(CSc1n[nH]c(-c2ccccc2Cl)n1)Nc1ccccc1F	106	0	129	90
CNC(=O)Cc1csc2ccc(Cl)cc12	101	-11	102	85
Oc1cccc(/C=N/N2CCCCC2)c1O	.	-27	78	62
CC1CCCCC1Nc1nc2ccccc2n2nnnc12 (stereo unspecified)	133	-6	91	79
CN(c1ccccc1)S(=O)(=O)c1cccc(C(=O)OCc2nnc(-c3ccccc3)o2)c1	.	-12	100	84
O=C(Nc1nnc(C2CC2)s1)C1Cc2ccccc2CN1S(=O)(=O)c1ccccc1F (stereo unspecified)	.	-9	123	94
CCOC(=O)COc1cccc2c(=O)n(CC(=O)NCc3ccc4c(c3)OCO4)ccc12	95	-33	97	81

Bioassay records (PubChem BioAssay)
